# Screening results: PubChem, National Center for Advancing Translational Sciences (NCATS)
# D2 PAM: positive allosteric modulators of human D2 dopamine receptor; DiscoveRx D2 beta-arrestin cells, luminescence, 90 min; 100% = 57 uM dopamine signal; potentiation, % (no concentration beside the values); hit rate 0.23% among 360,000; active = potentiation of 50% or more; inconclusive = 30% to 50%; inactive = 30% or less;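 further: compound concentration not given in the record; tested on top of an EC20 dose of dopamine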
# Target sequence (P14416 whole entry, looked up): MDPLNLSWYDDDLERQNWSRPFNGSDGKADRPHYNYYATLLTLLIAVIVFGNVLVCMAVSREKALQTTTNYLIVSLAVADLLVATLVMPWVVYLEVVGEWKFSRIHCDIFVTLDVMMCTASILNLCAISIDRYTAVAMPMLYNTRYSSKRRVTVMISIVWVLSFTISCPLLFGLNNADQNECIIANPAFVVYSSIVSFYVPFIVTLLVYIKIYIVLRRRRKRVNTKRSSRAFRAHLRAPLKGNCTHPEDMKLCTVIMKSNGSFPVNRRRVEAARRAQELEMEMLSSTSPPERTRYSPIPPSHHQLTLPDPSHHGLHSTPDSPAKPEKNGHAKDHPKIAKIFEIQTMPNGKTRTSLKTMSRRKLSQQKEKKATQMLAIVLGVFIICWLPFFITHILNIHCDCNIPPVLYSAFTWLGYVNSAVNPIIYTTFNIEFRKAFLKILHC
#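 D2 cells co-treated with compound plus 50 nM dopamine (EC20) for 90 min at 37 deg C to detect potentiation. Beta-arrestin recruitment was read as enzyme-fragment luminescence after 1 h at ambient temperature. Full response was set by 57 uM dopamine.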
# D2 agonist: human D2 receptor agonism in beta-arrestin assay; activation, % (concentration not given with the values); hit rate 0.084% among 360,000; DiscoveRx PathHunter D2 beta-arrestin, luminescence, 90 min; 100% = 57 uM dopamine signal; in the data active = activation above about 40%; inconclusive = about 15% to 40%; inactive = below about 15%; further: compound concentration not given in the record; the text of the record calls up to 30% inactive
#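 Agonist mode: compounds alone added to overnight-plated D2 PathHunter cells for 90 min at 37 C, with 57 uM final dopamine (EC100) defining full response. Beta-arrestin recruitment detected by chemiluminescent reagent, read after 1 h at ambient temperature.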
# gsp antag: gsp mutant antagonism; AID 624288; hit rate 0.4% among 340,000; gsp-mutant cells, cAMP HTRF, 30 min; control for the full effect not named in the record; Potency, µM (doses to about 76.9 µM), inactives show top-dose activity change, negative = inhibition, most hits filed as inhibitors; active = falling curve of any shape with a large fitted effect; inconclusive = falling curve, mostly with a smaller effect; inactive = flat or rising curve; cell line not stated here;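 further: intracellular cAMP measured with PDE inhibitor Ro 20-1724 present during compound exposure; potency means the concentration at half of the fitted maximal effect; on the % scale 0 is the no-effect control and ±100 the full control effect; nearly all actives have a fitted effect of over 65% in size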
#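 Cells in G418 medium, seeded 16-24 h, 37C; buffer exchange to DPBS + 1 mM CaCl2, 0.5 mM MgCl2, 0.05% BSA; cpds in DMSO + […] (300 uM stock), 30 min 37C; HTRF cAMP detection.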
# Six1-Eya2 inh: blocks human Six1 binding to Eya2. Q15475+O00167. AlphaScreen GST-Six1/His-Eya2 binding, biochemical; active compounds read low; control for the full effect not named in the record. activity change, % (no concentration beside the values). hit rate 0.56% among 360,000. AID 651725; in the data active = activity change below about -65%; inconclusive = about -30% to -65%; inactive = above about -30%; further: on the % scale 0 is the no-effect control and ±100 the full control effect
#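 GST-Six1 + His-Eya2 (5X stock: 250/500 nM); Tris pH 8.0, 300 mM NaCl, 0.05% BSA, 0.02% Tween 20; GSH donor/Ni acceptor beads; 1 h 37 °C dark; AlphaScreen readout.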
# gsp agonist: activates gsp, the McCune-Albright syndrome mutation | gsp mutant cells, cAMP HTRF, 30 min; control for the full effect not named in the record | Potency, µM (series often up to 76.9 µM), inactives show at the top dose activation (cAMP increase), most hits filed as activators | hit rate 0.13% among 340,000 | AID 624287; active = well fitted activation curve with a large enough effect; inconclusive = small, poorly fitted or top-dose-only effect, or another doubt; inactive = no such curve, though single readings can be large or run the other way; cell line not stated here;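 further: phosphodiesterase inhibitor Ro 20-1724 added with compounds to block cAMP breakdown; potency means the concentration at half of the fitted maximal effect; nearly all actives have a fitted effect of over 60% in size; about a fifth of the inactives were tested at one dose only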
#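 Cells stably selected in G418 were plated at 2000/well, grown 16-24 hr, then given compounds in DMSO with the PDE inhibitor […] (300 uM solution added) for 30 min at 37C; cAMP was read by HTRF.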
# CtBP-E1A blk: CtBP/E1A binding inhibition | activity change, % (no concentration beside the values) | AlphaScreen GST-E1A/His-CtBP binding, 1536-well; active compounds read low; control for the full effect not named in the record | hit rate 0.49% among 340,000; in the data active means activity change below about -65%; inconclusive means about -30% to -65%; inactive means above about -30%; further: on the % scale 0 is the no-effect control and ±100 the full control effect
#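 Homogeneous bead-based format: GST-tagged E1A captured on glutathione donor beads, His-tagged CtBP on nickel acceptor beads; compounds precede bead addition by 2 h at 37 °C.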
# Numbers without * were called inactive; ? = inconclusive; / = no result given; [ ] = remark or other dose.
SMILES,D2 PAM,D2 agonist,gsp antag,Six1-Eya2 inh,gsp agonist,CtBP-E1A blk
C[C@H](CO)N1C[C@H](C)[C@@H](CN(C)C(=O)c2cccnc2)Oc2ncc(Br)cc2C1=O,7,-4.5,/,0,?,6
COc1ccc(Cl)cc1NC(=O)CN(C)CC(=O)Nc1c(C)n(C)n(-c2ccccc2)c1=O,-3,-1.1,9%,2,-3%,1
COc1ccc(-c2nc(CN3CCC(C(=O)N4CCOCC4)CC3)c(C)o2)c(OC)c1,2,-3.4,-1%,8,0%[15.4 µM],-6
O=C1c2cccc3cccc(c23)C(=O)N1OS(=O)(=O)c1ccc(Br)cc1,-6,-3.4,-17%,?,1%[15.4 µM],-1
CCOc1ccc(S(=O)(=O)N(CC(=O)Nc2cccnc2)c2ccc(F)cc2)cc1,11,1.3,-9%,0,-15%,0
Cc1ccc(C(=O)N/C(=C/c2cccs2)C(=O)NCCCn2ccnc2)cc1,-6,-1.6,-6%,2,-1%,1
COc1ccc(O)c(C(=O)c2cnn(-c3ccccc3)c2)c1,-1,-2.9,-6%,4,-13%,-1
CCc1nc2nc(C)c(NS(=O)(=O)c3ccc(Cl)s3)c(=O)n2[nH]1,-5,3.3,2%,7,-7%,8
OC(CNCc1ccncc1)c1ccccc1 (stereo not drawn),-1,1.3,13%,-2,-7%[15.4 µM],-4
O=C(COc1ccc(Cl)cc1Cl)N/N=C/CCc1ccccc1,-8,-2.8,6%,5,?,-20
COc1ccc(NC(=O)CSc2nnc(Cc3cccs3)n2C)cc1,-3,-5.3,-5%,3,0%[15.4 µM],0
CCOC(=O)N1CCN(C(=O)c2ccc3c(c2)N(Cc2ccc(F)cc2)CCS3)CC1,1,5.7,-24%,-21,?,-2
Cc1nccn1CC(O)COc1ccc(Cl)cc1Cl (stereo not drawn),0,-2.5,10%,-5,5%,0
CCOC(=O)C1(Cc2ccccc2C)CCCN(C(=O)c2sccc2C)C1 (stereo not drawn),15,3.1,-16%,10,-22%,9
CCc1nc(N)c(C#N)c(-c2cccnc2)c1C,-5,-4.2,16%,3,-31%[inhibitor],11
CCCCNC(=S)N/N=C/c1ccc(C#N)cc1,9,2.9,-17%,19,1%,-8
Cc1ccc(-c2noc(CCCC(=O)NC3CCCCC3)n2)cc1,-4,-3.6,-2%,5,8%[15.4 µM],-2
CCN1C(=O)CC(N2CCN(CC(=O)NC(C)C)CC2)C1=O (stereo not drawn),-9,-3.4,17%,22,21%,45
Cc1ccc(CC2SC(N=C(N)N)=NC2=O)cc1 (stereo not drawn),-5,-5.0,4%,1,11%[15.4 µM],3
COc1ccc(/C=N\NC(=O)c2ccc(Cn3cc(Br)c([N+](=O)[O-])n3)o2)c(OC)c1C,-4,-3.5,-5%,4,-44%[inhibitor],/

# Exported with values under each structure: 5 of the compounds above
# Order of results: D2 PAM	D2 agonist	gsp antag	Six1-Eya2 inh	gsp agonist	CtBP-E1A blk
COc1ccc(O)c(C(=O)c2cnn(-c3ccccc3)c2)c1
→ -1	-2.9	-6%	4	-13%	-1
CCc1nc2nc(C)c(NS(=O)(=O)c3ccc(Cl)s3)c(=O)n2[nH]1
→ -5	3.3	2%	7	-7%	8
OC(CNCc1ccncc1)c1ccccc1 (stereo not drawn)
→ -1	1.3	13%	-2	-7%[15.4 µM]	-4
O=C(COc1ccc(Cl)cc1Cl)N/N=C/CCc1ccccc1
→ -8	-2.8	6%	5	?	-20
COc1ccc(NC(=O)CSc2nnc(Cc3cccs3)n2C)cc1
→ -3	-5.3	-5%	3	0%[15.4 µM]	0

# More entries:
SMILES,D2 PAM,D2 agonist,gsp antag,Six1-Eya2 inh,gsp agonist,CtBP-E1A blk
CCCCc1nnc(NC(=O)CSc2nc(O)c(Cc3ccccc3)c(=O)[nH]2)s1,-3,-2.1,-4%,-15,-1%[15.4 µM],/
Cc1cc(C)c2c(c1)cc(C)c1nnc(SCC(=O)Nc3ccccc3N3CCOCC3)n12,-11,0.3,-19%,-9,-3%,-11
CCCc1cc(C(=O)Nc2nnc(C)s2)cs1,-7,3.7,-6%,-1,4%,4
COc1ccc(-c2csc(C(C)(O)c3ccncc3)n2)cc1OC (stereo not drawn),4,14,/,-2,/,0
CC(C)c1ccc(NC2CCCN(C(=O)c3cccc4nccnc34)C2)cc1 (stereo not drawn),-14,3.5,8%,-10,?,-21
CN(C)CCCN=c1cc(-c2ccccc2)oc2ccc(Cl)cc12,3,-0.9,7%,-13,?,-9
CN(CCC(=O)Nc1ccc2c(c1)OCO2)Cc1ccccc1,-24,-1.5,5%,0,-41%[inhibitor],5
CC1CN=C(N(C(=S)Nc2ccccc2)c2cccc(C(F)(F)F)c2)S1 (stereo not drawn),-4,-4.1,15%,-1,-10%[15.4 µM],-9
CCCCC(NC(=O)COc1cc2c(c3oc(=O)cc(C)c13)CCC(C)(C)O2)C(=O)O (stereo not drawn),3,-0.5,0%,-5,-25%,0
CC(=O)CC(CC(=O)NC1CCCCC1)c1ccccc1 (stereo not drawn),-6,-2.5,12%,9,-13%,11
CCC1CSC(Nc2ccc(C(=O)/C=C/c3ccc(Oc4ccccc4)cc3)cc2)=N1 (stereo not drawn),-10,2.9,9%,-14,-11%,24
CC1CCC2(CC1)NC(=O)N(Cc1nnc(-c3cccs3)o1)C2=O (stereo not drawn),-4,-0.8,8%,0,2%,1
CN(Cc1c(F)cccc1Cl)c1nnnn1-c1ccccc1,-7,-2.0,-4%,0,-10%,4
CCOCCn1ccc2c(OCC(=O)Nc3ccccc3F)cccc2c1=O,-1,3.0,-30%,-1,-23%,-3
COc1ccc(CNC(=O)C2CCCN(S(=O)(=O)c3ccc4c(c3)C(C)(C)C(=O)N4C)C2)cc1 (stereo not drawn),-1,4.4,-13%,-5,-43%[inhibitor],-1
COc1ccccc1Nc1nc(-c2ccc([N+](=O)[O-])cc2)nc2ccccc12,-8,-1.0,5%,-1,0%,3
COc1cccc(-c2cc(C(F)(F)F)nc(N3CCCCC3)n2)c1,3,-2.5,11%,105,-10%,85
COc1ccccc1OCCOc1ccc(/C=N/n2cnnc2)cc1,14,0.2,9%,-1,-5%,5
Cc1ccc(C(=O)NCCNS(=O)(=O)c2ccccc2[N+](=O)[O-])cc1,0,14,9%,1,-55%[inhibitor],0
O=C(c1ccc(Cl)cc1)C1CCN(CC(=O)N2CCCCC2)CC1,-12,-1.8,2%,3,13%[15.4 µM],2

# Quoted at random: two compounds from above.
SMILES,D2 PAM,D2 agonist,gsp antag,Six1-Eya2 inh,gsp agonist,CtBP-E1A blk
COc1ccc(-c2csc(C(C)(O)c3ccncc3)n2)cc1OC (stereo not drawn),4,14,/,-2,/,0
CC(C)c1ccc(NC2CCCN(C(=O)c3cccc4nccnc34)C2)cc1 (stereo not drawn),-14,3.5,8%,-10,?,-21

# Further compounds follow.
SMILES,D2 PAM,D2 agonist,gsp antag,Six1-Eya2 inh,gsp agonist,CtBP-E1A blk
Nc1cc2c(cc1Br)-c1ccccc1C2=NO,-13,-0.6,6%,?,9%,?
Cc1ccc(-n2c(C)nnc2SC(C)C(=O)N2CCCC2)cc1 (stereo not drawn),-9,-4.0,5%,0,-7%[15.4 µM],-7
O=C(NC(=S)Nc1ccc(S(=O)(=O)Nc2ncccn2)cc1)c1cccc(Br)c1,-8,-3.9,-20%,-8,-8%[15.4 µM],-17
CC1(C)N=C(N)N=C(N)N1c1cccc(C(=O)O)c1,-4,-0.3,-3%,2,-5%,4
CC(C)CCN1CCN(CC(c2ccccc2)c2ccccc2)CC1CCO (stereo not drawn),-18,-3.2,9%,-2,-6%[15.4 µM],0
c1ccc2c(CSCCc3ccncc3)cccc2c1,-9,-2.0,-9%,-7,-32%[inhibitor],-12
O=C(Nc1ccccc1N1CCCC1)c1ccc([N+](=O)[O-])cc1Cl,-1,?,1%,-15,-85%[inhibitor],/
CC(=O)Oc1ccccc1C(=O)Nc1ccccc1C(=O)N1CCCC1,-5,-1.1,-2%,2,-2%,0
O=S(=O)(NCCC1CC1(Cl)Cl)c1ccc(Cl)cc1 (stereo not drawn),-4,0.4,-11%,15,8%[15.4 µM],23
CCn1c(=O)c(C(=O)NCCc2ccccc2)c(O)c2ccccc21,22,-1.2,3%,38,-30%,49
CCC(=O)N1CCc2cc(S(=O)(=O)CCC(=O)NCc3ccccc3OC)ccc21,-7,-0.3,6%,-2,11%,/
O=C(Nc1ccc(Cl)c(-c2nc3ccccc3[nH]2)c1)c1cccnc1,-3,-2.0,6%,-12,?,-26
CC(C)(C)N(Cc1ccccc1)C(=O)COC(=O)CCc1c[nH]c2ccccc12,10,1.9,-25%,-17,-38%[inhibitor],-21
COc1cc(OC)cc(C(=O)Nc2nc3ccc(S(C)(=O)=O)cc3s2)c1,-4,2.6,-10%,4,-8%,4
Cc1cc(NC(=O)CSc2nc(-c3ccc(F)cc3)cs2)no1,21,-1.6,2%,2,-9%,8
COc1ccccc1-c1ccc(=O)n(CC(=O)Nc2ccc(C(=O)N3CCCC3)cc2)n1,2,0.7,1%,-2,3%,-1
Cc1ccc(Nc2nc(N)nc(CCl)n2)cc1,-3,-2.5,21%,-1,9%[15.4 µM],-2
CC(=O)Nc1sc(C)c(C)c1C(=O)OCC(=O)Nc1cccc(C)c1,-2,-0.3,36%[activator],-3,-8%,2
COc1ccccc1OCc1ccc(C(=O)Nc2cc(OC)c(OC)c(OC)c2)o1,4,-0.2,?,-10,-21%,-1
Cc1ccc(S(=O)(=O)CCNC(=O)Cc2ccccc2)cc1,2,10,/,1,-1%[15.4 µM],0
COC(=O)c1sc2nc(CSc3ccc(Br)cc3)[nH]c(=O)c2c1C,-9,-2.6,-4%,5,16%,/
CC(C)[C@H](NC(=O)OC(C)(C)C)c1nnc(SCc2cccc(F)c2)o1,6,-2.8,8%,12,-55%[inhibitor],5
N#C/C(=C\c1cc(O)c(O)c(O)c1)C(N)=O,-6,-1.0,?,-22,4%,/
COc1ccc(NC(=O)NCCN2CCN(c3cccc(Cl)c3)CC2)cc1,-10,1.6,5%,?,28%,-24
O=C(CNC(=O)c1ccc(Br)o1)NNC(=O)c1n[nH]c(=O)c2ccccc12,-13,-3.3,11%,19,-2%,/
CCCCNC(=O)C1CC(c2ccccc2[N+](=O)[O-])=NO1 (stereo not drawn),-3,-2.2,11%,3,/,9
CCOC(=O)c1csc(NC(=O)c2ccc(S(=O)(=O)N3CCCC3)cc2)n1,25,-2.1,2%,-8,11%,0
O=C(c1cccs1)c1coc2ccc(O)cc12,-12,-2.9,-5%,-4,-1%,-6
CCC1=NN(C(=O)Cc2ccc(OC)c(OC)c2)C(O)(C(F)(F)F)C1 (stereo not drawn),18,4.7,5%,12,-31%[inhibitor],5
COc1cc(NC(=O)c2ccc3c(c2)C(=O)N(CCC(C)C)C3=O)c(C(=O)O)cc1OC,0,4.7,11%,-2,-1%,3
O=C1NCCN(Cc2ccc(Cl)c(F)c2)C1CC(=O)N1CCCO1 (stereo not drawn),-6,-2.0,12%,-7,-12%,0
CCN(C(=O)COC(=O)c1oc2ccccc2c1C)c1c(N)n(Cc2ccccc2)c(=O)[nH]c1=O,-3,1.0,7%,1,3%,0
